Mtb growth = M. tuberculosis H37Rv growth inhibitors, H37Rv strain (AID 1626). M. tuberculosis H37Rv growth inhibition; higher % means a stronger effect. inhibition, % at 10 µM, or IC50 in µM where a hit was titrated. actives 0.95% (n = 220,000);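 active = confirmed in a dose series; inconclusive = inhibition above 80% but not taken into the dose series; inactive = below 80% or under 30% at every dose of the series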;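 also: bacteria incubated seven days before Alamar blue readout; 0% = bacteria only wells and 100% = bacteria with antibiotic wells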
Arbovirus inh = arbovirus infection inhibition. inhibition, % at 10 µM. actives 0.37% (n = 200,000). arbovirus infection cell-based antiviral screen;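 active = inhibition from about 30%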;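 also: bluetongue infection of BSR cells; cell survival read as ATP light after 72 h; 0% = infected wells without compound and 100% = uninfected wells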
RecA intein inh = Mtb RecA intein splicing inhibition | P9WHJ3 | cell-free RecA intein splicing, fluorescence | inhibition, %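 (about 9 µM by stock and volumes)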 | actives 0.75% (n = 290,000); in the data active = inhibition above about 30%; inconclusive = no clear call, values can overlap the other calls;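 also: 0% = vehicle wells and 100% = reference inhibitor control wells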
Target sequence (P9WHJ3 whole entry, looked up): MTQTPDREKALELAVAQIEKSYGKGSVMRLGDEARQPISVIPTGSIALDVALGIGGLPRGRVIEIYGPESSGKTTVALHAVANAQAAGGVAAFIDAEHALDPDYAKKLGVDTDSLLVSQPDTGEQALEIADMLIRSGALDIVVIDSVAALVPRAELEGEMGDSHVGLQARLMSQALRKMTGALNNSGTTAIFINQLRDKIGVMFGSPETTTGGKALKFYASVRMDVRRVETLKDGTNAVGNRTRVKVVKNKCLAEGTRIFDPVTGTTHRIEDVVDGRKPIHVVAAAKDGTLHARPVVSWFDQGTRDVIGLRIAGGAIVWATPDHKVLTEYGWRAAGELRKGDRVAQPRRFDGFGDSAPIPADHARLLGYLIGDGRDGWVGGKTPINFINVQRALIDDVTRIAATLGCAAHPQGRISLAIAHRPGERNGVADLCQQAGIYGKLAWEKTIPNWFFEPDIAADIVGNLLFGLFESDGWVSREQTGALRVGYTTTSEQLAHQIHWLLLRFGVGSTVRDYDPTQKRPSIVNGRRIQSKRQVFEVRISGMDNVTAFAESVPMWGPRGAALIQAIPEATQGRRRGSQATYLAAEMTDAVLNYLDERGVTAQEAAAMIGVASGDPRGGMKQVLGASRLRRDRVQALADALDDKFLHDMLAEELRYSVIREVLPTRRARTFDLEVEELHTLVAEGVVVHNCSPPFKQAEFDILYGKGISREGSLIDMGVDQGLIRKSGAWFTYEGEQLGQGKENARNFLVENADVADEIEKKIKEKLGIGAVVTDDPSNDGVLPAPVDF
Mtb bLac sens = beta-lactam sensitization of Mtb H37Rv | M. tuberculosis H37Rv growth with meropenem, percent inhibition; hits of this screen are not shown here | inhibition, % at 25 µM | actives 0.27% (n = 330,000);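 active = about 74% or more and at least 40 points above the plate without the antibiotic, then above 30% in a dose series; inconclusive = first-round hits that could not be retested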;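 also: growth measured after seven days incubation then overnight dye step; 0% = bacteria only wells and 100% = bacteria with antibiotic; twin plates without the antibiotic show which effects depend on it; some results filed as inactive read as strong as hits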
YopH PTP inh = YopH (Yersinia) phosphatase inhibition; fluorescence Ex485/Em525; actives 0.16% (n = 140,000); inhibition, %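 (about 10 µM by stock and volumes)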;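 active = inhibition of 50% or more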;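 also: controls were vehicle for no effect and minimum signal wells for full effect; inactives centre near -20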
Arbovirus inh repeat = second read-out of Arbovirus inh, no call of its own (marks repeat the call); inhibition, %; measured here: 10K subset replicate screen; many hits read low in the repeat;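 first of two repeat runs on a subset; 0% = infected and 100% = uninfected wells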
* = called active by the depositor; ? = inconclusive; . = no result given. This is a subset; the hit share may differ from the screen's.

SMILES	Mtb growth	Arbovirus inh	RecA intein inh	Mtb bLac sens	YopH PTP inh	others
Cc1cc(C)nc(N2CCCC(C(=O)NCc3ccccc3F)C2)n1 (centres undefined)	1%	-3	0.1	5	.
CCOC(=O)c1cc(CC)sc1/N=C/C1C(=O)CC(C)(C)CC1=O	6%	-17	-0.4	-1	-24
O=S(=O)(NCc1cccs1)c1ccc(Br)s1	.	.	3.9	0	.
CCc1ccc(S(=O)(=O)Nc2cc3c(cc2N2CCCCC2)n(C)c(=O)c(=O)n3C)cc1	.	.	-3.3	4	.
CCc1ccccc1NC(=O)COc1cccc(-n2cnnn2)c1	.	.	-2.8	17	.
CCOC(=O)CC1(C)SC(NC(C)=O)=NN1C(C)=O (centres undefined)	-3%	-3	-1.1	6	.
CCSC1=NCCN1C(=O)Cc1ccc(-c2ccccc2)cc1	0%	0	2.0	0	.
N#CC1=C(N)NC(SCC(=O)Nc2ccc(Br)cc2)=C(C#N)C12CCCCC2	-4%	-22	9.8	17	2
C=CCN(c1cccc(C(F)(F)F)c1)S(=O)(=O)c1cccc(C(=O)OCC(=O)NC(N)=O)c1	12%	0	-3.0	9	-35
COc1ccc(-c2coc3cc(OC4OC(CO)C(O)C(O)C4O)ccc3c2=O)cc1 (centres undefined)	.	.	0.0	0	.
CCN(CC)c1ccc(/C=N/NC(=O)c2ccccn2)cc1	41%	.	-0.2	99	.
COc1cc(-n2c(=O)c3ccccc3n(CC(=O)c3ccc(F)cc3)c2=O)cc(OC)c1OC	1%	-2	-0.9	-5	.
CCCCNC(=O)Nc1ccc(C(O)(C(=O)OC)C(F)(F)F)cc1 (centres undefined)	-1%	1	-1.1	2	-46
COc1ccc2cc(CCNC(=O)c3ccc4c(c3)OCO4)c(=O)[nH]c2c1	4%	-5	3.3	-3	-12
COCCn1c(=O)[nH]c2cc(C(=O)N3CCN(c4ccc(Cl)cc4)CC3)ccc2c1=O	.	.	-0.6	12	.
Cc1ccc(C)c2c1cc(C)c1nnc(SCC(=O)Nc3cccc(C(=O)O)c3)n12	-9%	.	-5.0	-3	.
CC(NC(=O)c1ccc(OC2CCN(Cc3ccccn3)CC2)cc1)c1nccs1 (centres undefined)	.	.	-2.5	-10	.
Cc1csc(NC(=O)CSc2nnc(Cn3c(=O)sc4ccccc43)n2-c2ccccc2)n1	0%	-5	.	-7	-30	Arbovirus inh repeat=-13
Cc1ccc(C(=O)OCC(=O)N2CCC(C)CC2)cc1S(=O)(=O)N1CCCCC1	.	.	1.6	-12	.
CC(=O)c1c(C(C)=O)c(C)n(NC(=O)c2ccccc2Cl)c1C	-2%	7	0.2	-15	-43
COc1ccc(-c2csc(Cc3nnc(N4CCOCC4)n3-c3ccccc3)n2)cc1	-10%	11	1.3	10	-33
CC(C)(C)OC(=O)NC(CO)c1cn([C@@H](Cc2cc3ccccc3[nH]2)C(=O)N2CCN(C(=O)OC(C)(C)C)CC2)nn1 (some centres undefined)	.	5	0.0	-6	.
Cc1cc(C)c(NC(=O)CNC(=O)COC(=O)CN2C(=O)NC3(CCCC3)C2=O)c(C)c1	.	.	0.4	-6	.
COc1cc(-c2nc3cnccn3c2NC(C)(C)CC(C)(C)C)ccc1O	.	.	-12	1	.
C=CCSc1nccc(-c2cc(Cl)sc2Cl)n1	-6%	4	-1.0	13	-25

Reprinted from the part before: seven compounds; new compounds follow.
SMILES	Mtb growth	Arbovirus inh	RecA intein inh	Mtb bLac sens	YopH PTP inh	others
Cc1ccc(C(=O)OCC(=O)N2CCC(C)CC2)cc1S(=O)(=O)N1CCCCC1	.	.	1.6	-12	.
CC(=O)c1c(C(C)=O)c(C)n(NC(=O)c2ccccc2Cl)c1C	-2%	7	0.2	-15	-43
COc1ccc(-c2csc(Cc3nnc(N4CCOCC4)n3-c3ccccc3)n2)cc1	-10%	11	1.3	10	-33
CC(C)(C)OC(=O)NC(CO)c1cn([C@@H](Cc2cc3ccccc3[nH]2)C(=O)N2CCN(C(=O)OC(C)(C)C)CC2)nn1 (some centres undefined)	.	5	0.0	-6	.
Cc1cc(C)c(NC(=O)CNC(=O)COC(=O)CN2C(=O)NC3(CCCC3)C2=O)c(C)c1	.	.	0.4	-6	.
COc1cc(-c2nc3cnccn3c2NC(C)(C)CC(C)(C)C)ccc1O	.	.	-12	1	.
C=CCSc1nccc(-c2cc(Cl)sc2Cl)n1	-6%	4	-1.0	13	-25
Cc1cccc(C)c1NC(=S)NCCSc1ccc(Cl)cc1	12%	-31	12	-8	.
Cc1ccc(N2CCN(S(=O)(=O)c3ccc(-n4cnnn4)cc3)CC2)c(C)c1	.	.	0.6	1	.
CC1=CCC(C(=O)O)C(C(=O)Nc2cccnc2)C1 (centres undefined)	-3%	4	-0.5	19	.
COc1ccc(OC)c(C2C3=C(COC3=O)Nc3cc4c(cc32)OCO4)c1 (centres undefined)	-13%	-10	-0.5	7	-28
COc1cccc(CNc2ccc(N3CCC(C)CC3)cc2)c1OC	-11%	-5	2.2	-17	22
CCc1ccccc1OCCCOc1ccc(OC)cc1	11%	16	20	3	-26
Cc1ccc(C)c(N(C)C(=O)c2ccc3c(=O)n4c(nc3c2)CCCCC4)c1	.	.	1.5	2	.
COc1cccc(CNC(=O)CCCc2c[nH]c3ccccc23)c1	.	.	0.3	-4	.
COc1ccc(CC(=O)Nc2c3c(nn2-c2cccc(Cl)c2)CS(=O)C3)cc1 (centres undefined)	-6%	3	3.5	-4	-35
CC(C(=O)Oc1ccc2c(c1)OCO2)N1C(=O)c2ccccc2C1=O (centres undefined)	18%	-2	-2.4	2	-33	Arbovirus inh repeat=5
Cc1cc(OC(=O)c2cccs2)c2c3c(c(=O)oc2c1)CCCC3	?	26	4.8	99	-20
O=C(NCCc1ccc(F)cc1)C(=O)NCC1CCCN1S(=O)(=O)c1ccccc1 (centres undefined)	.	.	-2.2	1	.
COc1ccc(CN(C(=O)c2cnccn2)C(C(=O)Nc2ccc(F)cc2)c2ccccc2)cc1 (centres undefined)	2%	-15	.	2	-12
CCC1CN(C(=O)NCc2ccc(F)cc2)c2cc(Cl)ccc2O1 (centres undefined)	.	.	-0.1	-1	.
COc1ccc(S(=O)(=O)N2CCCCC2)cc1NC(=O)c1ccc([N+](=O)[O-])o1	-2%	11	8.9	12	.
CN(C)c1nc(N(C)C)nc(N(C#N)CN2C(=O)c3ccccc3S2(=O)=O)n1	-4%	0	-4.1	3	.
CCc1ccc(NC(=O)C2CCCN2c2nn3c(=O)cc(C)nc3s2)cc1 (centres undefined)	.	.	-0.6	0	.
CCOc1ccc(NC(=O)NNC(=O)c2ccc(Cl)cc2Cl)cc1	-10%	-10	-1.1	2	.
CCc1nnc(NS(=O)(=O)c2ccc(N/C=C/C(=O)c3ccc(OC)cc3)cc2)s1	-4%	10	-11	12	.
COc1ccc(C(=O)Nc2cc(OCc3ccccc3)c(Cl)cc2Cl)cc1	-6%	2	-1.0	-5	-39
CC1CCN(C(=O)CNC(=O)c2cccc(OC(F)F)c2)CC1	0%	2	2.4	-2	.
O=C(COc1ccc2c(c1)oc(=O)c1ccccc12)NCCN1CCOCC1	.	.	-0.3	0	.
CCCCN(C(=O)NC(=O)Nc1ccc(C)cn1)S(C)(=O)=O	-10%	4	4.4	-19	5
CCOC(=O)c1sc(NC(=O)CSc2nnnn2-c2ccc(C)cc2)c(C(=O)OCC)c1C	-4%	-17	0.3	-1	-49
Cc1ccc2nc(NC(=O)Cc3cccs3)sc2c1	-5%	7	3.8	49	6

Later entries
SMILES	Mtb growth	Arbovirus inh	RecA intein inh	Mtb bLac sens	YopH PTP inh	others
CC(=O)Oc1ccccc1C1=NN(C(C)=O)C(c2ccccc2)C1 (centres undefined)	1%	2	0.8	-1	.
Cn1c(C(=O)NCCN2CCN(c3ccccc3F)CC2)cc2c(=O)n(C)c3ccccc3c21	.	-5	2.4	-7	-10	Arbovirus inh repeat=0
O=C(CN1CCOCC1)Nc1ccc2c(c1)CCC2	-6%	.	-18	-10	.
Cc1sc2nnn(CC(=O)N3CCN(C(=O)c4ccco4)CC3)c(=O)c2c1C	-2%	.	-4.5	-6	-44
COc1cccc(NC(=O)C2CCN(S(=O)(=O)c3ccc4c(c3)NC(=O)C(C)S4)CC2)c1 (centres undefined)	.	.	-2.8	7	.
CN(CCc1ccccn1)C(=O)CC1C(=O)NCCN1Cc1cccc(F)c1 (centres undefined)	.	.	-3.3	-8	.
Cc1ccccc1C(=O)Nc1nc(=S)ss1	7%	15	3.1	3	-11
O=S(=O)(NC1CCCCC1Sc1ncccn1)c1ccc(Cl)cc1 (centres undefined)	4%	7	0.5	-5	-12
CCOC(=O)CCCNC(=O)CCNC(=O)c1ccc(OCCC(C)C)cc1	-4%	.	1.3	-6	.
CC(=O)Nc1cc(C(=O)N2CCc3ccccc3C2)ccc1Sc1ccc(F)cc1	4%	7	0.6	-1	-39
COCCNc1nc2nonc2nc1NC(C)c1ccccc1Cl (centres undefined)	4%	17	-1.7	2	.
Cc1ccc(C(=O)OCc2nc3ccccc3s2)o1	.	.	1.0	52	.
CCOC(=O)c1ccc(NC(=O)C2(c3ccc(Cl)cc3)CCCC2)cc1	5%	2	0.4	51	-30
Cc1cc(NC(=O)Cn2nc(-c3cccs3)ccc2=O)cc(C)c1Br	.	.	-2.2	1	.
N#Cc1ccc(COC(=O)c2ccccn2)cc1	39%	1	1.7	42	.
Brc1cc2c(cc1/C=N/Nc1nc(N3CCOCC3)nc(N3CCOCC3)n1)OCO2	10%	-3	4.3	-1	-46
CC(C)C(C(=O)NCc1ccco1)N(Cc1ccco1)C(=O)CNS(=O)(=O)c1ccccc1 (centres undefined)	.	.	3.3	7	.
Cc1cccc(N2C(=O)CS/C2=N\NC(=O)c2cccnc2)c1C	-4%	4	-1.0	-3	.
Cn1c(=O)c2[nH]c(NCCCN3CCOCC3)nc2n(C)c1=O	-8%	6	-2.7	-7	-12
CCC(C)C(=O)Nc1nc2ccc(OC)cc2s1 (centres undefined)	6%	.	-0.4	1	.
Cc1ccccc1/C=N/n1c(-c2ccccn2)n[nH]c1=S	-5%	.	-0.6	-14	.
COc1cccc(/C=C/C(=O)N2CCN(c3n[nH]c(=O)[nH]c3=O)CC2)c1OC	-6%	0	-0.8	-6	.
Cc1cc(NC(=O)CSc2c(C)[nH]c3ccccc23)no1	12%	7	-1.8	3	2	Arbovirus inh repeat=1
Nc1n[nH]c(N)c1N=Nc1ccc(F)cc1	3%	10	5.0	-12	.
O=C1N/C(=N\N=C\c2cccs2)SC1Cc1ccc(Cl)cc1Cl (centres undefined)	10%	-15	-0.4	5	-4

Part of the list above in order of SMILES length, largest number first:
SMILES	Mtb growth	Arbovirus inh	RecA intein inh	Mtb bLac sens	YopH PTP inh	others
COc1cccc(/C=C/C(=O)N2CCN(c3n[nH]c(=O)[nH]c3=O)CC2)c1OC	-6%	0	-0.8	-6	.
Brc1cc2c(cc1/C=N/Nc1nc(N3CCOCC3)nc(N3CCOCC3)n1)OCO2	10%	-3	4.3	-1	-46
Cc1cc(NC(=O)Cn2nc(-c3cccs3)ccc2=O)cc(C)c1Br	.	.	-2.2	1	.
Cn1c(=O)c2[nH]c(NCCCN3CCOCC3)nc2n(C)c1=O	-8%	6	-2.7	-7	-12
Cc1ccccc1/C=N/n1c(-c2ccccn2)n[nH]c1=S	-5%	.	-0.6	-14	.
O=C(CN1CCOCC1)Nc1ccc2c(c1)CCC2	-6%	.	-18	-10	.

Following part
SMILES	Mtb growth	Arbovirus inh	RecA intein inh	Mtb bLac sens	YopH PTP inh	others
COc1ccccc1CNC(=O)C(=O)NCC1CCCO1 (centres undefined)	-7%	5	-0.3	-6	-21
O=c1[nH]nc(-c2ccc(NCCCO)c([N+](=O)[O-])c2)c2ccccc12	.	.	1.1	-2	.
CCSc1cc(N2CCOCC2)nc(-c2ccccc2)n1	7%	9	-1.3	-5	-10
CC(=O)c1ccc(Oc2nc3c(c(=O)n(C)c(=O)n3C)n2C)cc1	4%	5	1.3	-13	.
COc1ccc(OC)c(S(=O)(=O)Nc2ccc(F)cc2)c1	7%	2	-0.1	1	-11
CCc1nnc(NC(=O)c2ncc(Cl)c(Cl)c2Cl)s1	.	.	0.1	-11	.
CC(C)NC(=O)c1onc(CSc2nc3ccccc3[nH]2)c1C(=O)NC(C)C	.	.	-0.4	1	.
CN1CCN(C(=O)C(=O)c2cn(CC(=O)N3CCCC3)c3ccccc23)CC1	.	.	-0.8	-10	.
O=S(=O)(Nc1ncccn1)c1ccc(Nc2ncnc3ccccc23)cc1	-9%	2	-6.1	20	-70
CC(C)Oc1ccc(C(=O)NCc2ccco2)cc1	9%	-5	2.2	1	-34

Compound activity: PubChem, several laboratories
